B2AR ag – beta2AR agonists driving receptor internalization, primary screen, cell-based, FAP fluorogen, flow cytometry; Beta-2 adrenergic receptor (Homo sapiens), P07550; Am2.2-beta2AR cells; reference of the scale not given here; response, % (concentration not given with the values); actives 0.43% (n = 340,000); AID 504454, 2011;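 active means response above a set limit, near 3 SD of response in nonfluorescent compounds, cut at about 42% in these data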;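 further: stock transfer was 100 nL into about 11 µL; a reference agonist was the positive control; negative values mostly stem from fluorescent compounds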
Target sequence (P07550 whole entry, looked up): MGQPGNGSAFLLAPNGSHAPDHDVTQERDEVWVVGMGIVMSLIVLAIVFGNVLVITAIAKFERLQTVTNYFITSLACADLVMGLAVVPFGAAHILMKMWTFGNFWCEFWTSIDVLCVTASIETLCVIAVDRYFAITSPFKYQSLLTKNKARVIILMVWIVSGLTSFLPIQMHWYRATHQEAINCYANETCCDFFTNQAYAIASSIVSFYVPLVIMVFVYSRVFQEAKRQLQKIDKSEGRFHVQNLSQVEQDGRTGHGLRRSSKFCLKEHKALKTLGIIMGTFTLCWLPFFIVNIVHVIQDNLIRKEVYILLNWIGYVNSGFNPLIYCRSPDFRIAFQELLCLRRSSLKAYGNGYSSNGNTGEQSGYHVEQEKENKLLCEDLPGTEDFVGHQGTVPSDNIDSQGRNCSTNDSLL
RanGTP-Imp inh – inhibitors of RanGTP-importin-beta interaction, primary screen, biochemical, FRET, CFP-Ran, YFP-importin-beta, homogeneous; cell-free CFP-Ran/YFP-importin-beta FRET ratio; Ran GTPase (GTP-bound) - importin-beta complex; AID 2216, 2009; actives 1.1% (n = 300,000); inhibition, % (no concentration beside the values);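 active means most replicates above 15%; inconclusive means exactly half above 15%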;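 further: 0% = DMSO wells and 100% = Ran loaded with GDP instead of GTP; wells of about 40 µL received 100 nL stock; the first replicate is given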
ALR H2O2 inh – inhibitors of human ALR sulfhydryl oxidase, primary screen, biochemical, H2O2 detection, HRP-luminol luminescence, single point; AID 485317, 2010; purified ALR, DTT oxidation; inhibition, % (test concentration not listed); actives 3.8% (n = 290,000);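 active means mean and each replicate at 75% or more; inconclusive means only one of the two met; inactive means neither met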;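 further: stock transfer was 7.5 nL into about 7.5 µL; 0% = neutral wells and 100% = wells with inactivated enzyme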
Target sequence (P55789 whole entry, looked up): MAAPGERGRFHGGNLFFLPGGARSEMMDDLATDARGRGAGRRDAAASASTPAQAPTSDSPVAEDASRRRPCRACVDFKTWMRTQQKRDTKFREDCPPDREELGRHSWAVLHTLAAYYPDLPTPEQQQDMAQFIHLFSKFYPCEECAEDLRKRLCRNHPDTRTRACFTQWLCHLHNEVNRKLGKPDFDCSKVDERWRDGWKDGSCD
Calb FLC – C. albicans growth inhibition with fluconazole, primary screen, CaCi-2 strain, Alamar Blue fluorescence; C. albicans CaCi-2 (fluconazole-resistant clinical isolate) + fluconazole, 48 h; AID 1979, 2009; growth inhibition, % (concentration not given with the values); actives 0.57% (n = 300,000);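 active means most replicates above 75%; inconclusive means exactly half above 75%; inactive means most below 75%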;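 further: all wells also contain fluconazole at 8 µg/ml as a sub-toxic cotreatment; 0% = median of DMSO wells and 100% = median of geldanamycin control wells; wells of about 8 µL received 7.5 nL stock; the first replicate is given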
Vif TR-FRET – inhibitors of Vif binding to APOBEC3G peptide, primary screen, biochemical, TR-FRET, GST-Vif 1-94, biotin-A3G peptide, dose response retest (AID 1117319) | Virion infectivity factor (Human immunodeficiency virus type 1 group M subtype B (isolate … | TR-FRET GST-Vif / biotin-A3G peptide binding; higher % means a stronger effect; test concentration not given here; strong numbers were not always called active | actives 0.57% (n = 260,000) | inhibition, %; hits with a dose series show IC50 in µM;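 active means above the screen mean plus three standard deviations and confirmed in dose response; inconclusive means results disagree or hit not tested in dose response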;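 further: Vif residues 1-94 fused to GST binding biotinylated APOBEC3G peptide 110-148; 0% = full assay without inhibitor and 100% = GST in place of GST-Vif; retest series ran down from 100 µM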
LANA-H2A inh – blockers of LANA interaction with H2A/H2B – biochemical, FP readout, HTS, primary screen. cell-free LANA-H2A/H2B peptide, fluorescence polarization. AID 2629, 2010. inhibition, % (concentration not given with the values). Protein LANA1 (Human herpesvirus 8 type P (isolate GK18)), Q9QR71. actives 0.6% (n = 320,000); in the data active means inhibition mostly above about 10%, no sharp cut-off; inactive means mostly below about 6.7%;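 further: stock transfer was 7.5 nL into about 10 µL; 0% = median of vehicle wells and 100% = median of positive control wells; one replicate is shown; the record names a cut of 25% in any replicate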
HNF4A DNA FP – change in binding of human HNF4A to DNA, primary screen, biochemical, fluorescence polarization, FITC-DNA; 1 h; activity change, % at 10 µM; actives 0.3% (n = 360,000); AID 1224865, 2016; in the data active means activity change above about 30%, passing the limit was not always enough;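 further: controls were the assay level and a saturating level of protein; the project sought stronger binding though the title names inhibitors; some compounds called inactive have numbers as strong as hits; positive values seem to mean higher polarization but the record does not say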
Target sequence (P41235 whole entry, looked up): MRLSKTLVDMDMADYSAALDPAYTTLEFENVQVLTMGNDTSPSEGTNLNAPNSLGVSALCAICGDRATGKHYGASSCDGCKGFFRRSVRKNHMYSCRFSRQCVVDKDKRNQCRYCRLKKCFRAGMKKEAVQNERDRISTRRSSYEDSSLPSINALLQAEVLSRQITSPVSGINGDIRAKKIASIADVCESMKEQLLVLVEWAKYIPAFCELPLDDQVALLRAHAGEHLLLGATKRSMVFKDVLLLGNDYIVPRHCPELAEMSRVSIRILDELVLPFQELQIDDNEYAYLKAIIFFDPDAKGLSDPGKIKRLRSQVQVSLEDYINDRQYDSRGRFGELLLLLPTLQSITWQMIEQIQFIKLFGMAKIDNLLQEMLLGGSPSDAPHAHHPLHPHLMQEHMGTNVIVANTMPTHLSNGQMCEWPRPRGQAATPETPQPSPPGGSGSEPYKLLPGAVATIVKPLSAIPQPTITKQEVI
Active calls of the source: *; ? = inconclusive; . = no result given; & = joins results of further samples.

Each structure is followed by: B2AR ag, RanGTP-Imp inh, ALR H2O2 inh, Calb FLC, Vif TR-FRET, LANA-H2A inh, HNF4A DNA FP
#1 CCOC(=O)c1sc(NC(=O)CSc2n[nH]c(CC)n2)nc1C
→ 1, 4.7, -2, -2, -4%, 4.3, -4.6
#2 C=CCn1c(SCc2nc3cc(C(=O)OC)ccc3c(=O)[nH]2)nc2sc(CC)cc2c1=O
→ -13, -3.4, -2, -11, ., -1.9, 3.9
#3 Nc1nonc1OCCc1ccccc1
→ -1, 3.6, -9, -1, -2%, 3.7, -0.2
#4 CC(=O)c1cc(-c2ccccc2)n(CC(=O)NC2CCCCC2)c1C
→ 2, ?, 2, -5, -18%, -0.7, -1.7
#5 COc1ccc(-c2[nH]ncc2CN2CCN(C(=O)c3ccco3)CC2)cc1F
→ -5, -1.7, -16, 3, 20%, 1.3, 0.5
#6 CC1CCN(C(=O)CSc2nnc(CNc3ccc(F)cc3)n2Cc2ccco2)CC1
→ -1, 1.9, 3, 2, 26%, -7.6, 3.7
#7 CC(C)CNC(=O)c1ccc(Cl)c(Cl)c1
→ -2, 0.1, 1, 1, 0%, 5.3, 0.2
#8 Cc1cccc(C)c1Nc1nnc(SCc2nc3ccccc3s2)s1
→ 1, 1.4, -5, 2, 13%, -0.3, 15
#9 Cc1nn(CC(=O)NCc2cccc3ccccc23)c(=O)c2ccccc12
→ -8, ?, -2, -6, -3%, -1.3, 0.9
#10 COc1ccc(-n2nnnc2SCC(=O)Nc2nnc(C)s2)cc1
→ -4, 1.2, -14, 6, 3%, 0.3, 0.3
#11 O=C1CCC/C=C/C[C@H](CC(=O)N(CCO)Cc2ccccc2)C(=O)N[C@@H](Cc2ccccc2)CO1
→ -5, ., 0, ., ., -1.1, -0.3
#12 CC(O)[C@H]1CC[C@H]2[C@@H]3CC[C@H]4C[C@@H](O)CC[C@]4(C)[C@H]3C(=O)C[C@]12C (stereo not given in full)
→ -3, 0.7, -6, -4, ., 2.3, 0.3
#13 COc1nc(N(C)C)nc(N(C)c2cc(Cl)cc(Cl)c2)n1
→ 5, ?, -3, -7, ., -9.4, 2.0
#14 Cc1nc2ccc(C(=O)Nc3ccc(N(C)C)cc3)cc2s1
→ 10, 5.3, 99*, 1, ., 1.9, -1.7
#15 COc1ccc(C(=O)Nc2cccc(S(=O)(=O)NC3=NCCC3)c2)cc1OC
→ -4, ., -12, ., ., 4.1, -2.4
#16 COc1ccc(C(=O)/C=C/C(=O)N(Cc2ccccc2OC)C(C(=O)NC2CCCCC2)c2ccncc2)c(O)c1 (stereo not given)
→ 1, 5.4, -1, -2, 2%, -1.1, 0.1
#17 CCN1C(=O)S/C(=C/c2c(OCc3ccc(C(=O)O)cc3)ccc3ccccc23)C1=O
→ -7, ., 2, ., ., 119*, -0.5
#18 Nc1ccc(C2CCCc3nonc32)c2nonc12 (stereo not given)
→ 3, -20, -18, 18, 20%, 2.6, -1.0
#19 O=C(CNC(=O)c1ccco1)OCC(=O)c1ccc2ccccc2c1
→ 3, -1.9, ., 2, -10%, -2.0, 0.2
#20 Cc1ccccc1Oc1ccc2c(c1)[C@@H]1C[C@H](N(C)C(=O)c3ccc(C#N)cc3)[C@H]([C@H](C)O)C(=O)N1CC2
→ -1, ., ., ., 0%, ., -3.9
#21 CC(=O)c1cnc(SCCN2C(=O)c3ccccc3C2=O)nc1C
→ -3, 1.8, 6, -3, 5%, -5.0, 1.8
#22 CS(=O)c1nc(-c2ccc(Br)cc2)cc(-c2ccccc2)c1C#N (stereo not given)
→ 99*, 1.0, 42, 32, -138%&-106%, 1.2, -1.8
#23 Cc1noc(C(=O)Nc2ccc(F)cc2F)c1Cl
→ -1, 0.5, -13, 9, -2%, 5.1, 2.4
#24 O=C(Nc1cccc(F)c1)c1cccnc1N1CCOCC1
→ -9, -0.9, 85*, -12, -4%, 0.4, 1.0
#25 O=C1C=C(N(CCO)Cc2ccccc2)c2ccccc2C1=O
→ 20, 1.7, ., -4, 11%, ., 1.9
#26 COc1cc2c(cc1OC)[C@@H]1Cc3cc4c(cc3[C@H](C2)N1C)OCO4
→ 5, -0.2, -4, 1, 2%, -14, -7.0
#27 Cc1nc2nc(SCC(=O)NCCCN3CCOCC3)nn2c(C)c1Cc1ccccc1
→ 1, -2.0, 3, -5, 6%, 7.3, -1.4
#28 Cc1cc(CNC(=O)Cc2c(F)cccc2Cl)nn1C
→ -8, 2.2, 1, -3, 2%, 0.9, -1.1
#29 COc1cccc(CNC(=O)C2CCC(=O)N(CC3CCCCC3)C2)c1OC (stereo not given)
→ -6, 0.1, -8, 10, ., -0.2, 1.9
#30 Fc1ccc(N2CCN(C3CCC(c4ccccc4)CC3)CC2)cc1 (stereo not given)
→ 14, -4.2, -3, -16, ., -4.8, 4.7
#31 COc1cc(NC(=S)N2CCN(S(C)(=O)=O)CC2)cc(OC)c1
→ 2, ., -18, -25, ., -4.1, -5.6
#32 COc1ccccc1CC(=O)Nc1ccc([N+](=O)[O-])cc1O
→ 1, 0.9, 2, ?, 16%, -33, 1.7
#33 COc1ccc(CCNC(=O)c2cc(=O)c3cc(C)ccc3o2)cc1OC
→ 10, -0.9, -1, -3, -3%, -4.6, 0.0
#34 COc1ccc(NC(=S)NCCCN2CCCC2)cc1
→ -3, -0.9, -26, -35, -1%, 2.1, 2.4
#35 CC(C)c1ccc(N(CC(=O)NC2CCCC2)C(=O)CCC(=O)Nc2nccs2)cc1
→ 3, 0.5, 0, -6, ., 2.9, -1.9
#36 CN(C)S(=O)(=O)c1cccc(NC(=O)CCCC2CCCCC2)c1
→ -2, 2.7, -1, -8, -4%, 2.7, 0.3
#37 CC(C)(CC(=O)O)CC(=O)N1CCCN(c2nc3ccc(Cl)cc3s2)CC1
→ -2, -1.5, ., 11, -4%, 0.6, -2.4
#38 CC(=O)c1ccc(OCc2ccccc2)c(C)c1O
→ 1, -0.7, -3, 6, 15%, 0.2, -0.2
#39 COc1ccc(CCC(=O)N2CCN(c3ccc(OC)cc3)CC2)cc1
→ 4, -2.7, ., -8, ., ., -1.1
#40 Cc1cccc(NC(=S)N2CCCCCC2)c1C
→ -2, ., -11, -18, ., 0.6, -0.1
#41 O=C(COc1ccc2c3c(c(=O)oc2c1)CCCC3)NCC(O)c1ccccc1 (stereo not given)
→ -10, -0.2, 0, -3, ., 0.6, 3.9
#42 CC(=O)N(OCc1ccc(OC(C)C)c(Cl)c1)C(C)=O
→ -4, 8.0, 29, -5, -1%, 0.3, 1.1
#43 CC(C)(C)OC(=O)C[C@@H]1C/C=C\C[C@@H](CC(=O)N(CCO)Cc2ccccc2)C(=O)N[C@H](Cc2ccccc2)COC1=O
→ -1, ., -5, ., ., -2.4, 6.7
#44 COC(=O)c1cc(S(=O)(=O)NCCN2CCOCC2)cn1C
→ -1, 1.8, 4, -2, 5%, 0.4, 1.0
#45 CC1=C(C(=O)N2CCOCC2)C(c2cc(C)cs2)NC(=O)N1 (stereo not given)
→ -2, -5.4, -1, 1, 3%, -0.9, -1.9
#46 CC1CCCCC12NC(=O)N(CC(=O)NCCc1ccccc1)C2=O (stereo not given)
→ 6, ., 1, ., -17%, -0.1, -6.0
#47 CCC(CC)NC(=O)CC(c1ccccc1)c1ccccc1
→ 0, 7.6, 9, -51, ., 3.5, 1.1
#48 CCCCC(=O)Nc1nc2c(s1)COc1ccccc1-2
→ 5, 2.1, 8, 2, ., -1.8, 1.7
#49 COc1ccc(CCNC(=O)COC(=O)Cc2ccccc2F)cc1
→ 0, ., -3, ., -8%, -2.4, -4.5
#50 CCOC(=O)/C(N=Nc1ccc2c(c1)OCO2)=C(\C)O
→ 3, ., -6, -17, 9%, 6.1, -0.8
#51 CCOC(=O)CSC1=C(C#N)C(c2ccccc2Cl)C(C(=O)OC)C(=O)N1 (stereo not given)
→ 15, 2.7, 19, 52, 15%, 1.8, 1.6
#52 COC(=O)NNC(=O)C(C)Oc1ccc(Cl)cc1Cl (stereo not given)
→ 10, 0.2, -3, -5, 22%, -1.6, -1.1
#53 O=c1c2ccccc2nnn1-c1ccc(Br)cc1
→ 13, 1.8, -16, -3, -4%, -1.6, -3.0
#54 Cc1cc(C)cc(NC(=S)NC2CC3CCCC(C2)N3C2CCCC2)c1 (stereo not given)
→ 1, -3.0, -12, -23, -6%, 0.5, 2.4
#55 COc1ccc2oc(C(=O)NCCc3ccccc3)c(C)c2c1
→ 1, ., -9, -3, ., 0.6, 1.0
#56 COc1ccc(OCC(=O)Nc2cc(-c3nn4c(C)nnc4s3)ccc2C)cc1
→ 70*, 2.0, -2, -3, -10%, -5.9, 42*
#57 c1ccc(-c2nc(N3CCCCCC3)c3ccccc3n2)nc1
→ 1, 1.0, 1, -3, 8%, -2.9, -3.5
#58 Cn1c(=O)c(Sc2ccc(Cl)cc2)c(O)c2ccccc21
→ -2, -0.6, 1, 10, ., 0.8, -2.2
#59 CCOC(=O)c1sc2nc[nH]c(=O)c2c1C
→ 6, -1.1, -3, 0, 12%, -5.7, 7.6
#60 CSC(=NS(=O)(=O)c1ccc(C)cc1)SC
→ 0, -0.2, 3, -5, -2%, -0.6, 0.5

2 entries from above, bar-delimited.
# | structure | B2AR ag | RanGTP-Imp inh | ALR H2O2 inh | Calb FLC | Vif TR-FRET | LANA-H2A inh | HNF4A DNA FP
53 | O=c1c2ccccc2nnn1-c1ccc(Br)cc1 | 13 | 1.8 | -16 | -3 | -4% | -1.6 | -3.0
54 | Cc1cc(C)cc(NC(=S)NC2CC3CCCC(C2)N3C2CCCC2)c1 (stereo not given) | 1 | -3.0 | -12 | -23 | -6% | 0.5 | 2.4

As entered above.
Calb FLC, `CCCCC(=O)Nc1nc2c(s1)COc1ccccc1-2` → 2
B2AR ag, `COC(=O)NNC(=O)C(C)Oc1ccc(Cl)cc1Cl` (stereo not given) → 10

(further entries)
Each structure is followed by: B2AR ag, RanGTP-Imp inh, ALR H2O2 inh, Calb FLC, Vif TR-FRET, LANA-H2A inh, HNF4A DNA FP
#61 Cc1cccc(OCC(=O)NCc2cc(C)nc3ccccc23)c1
→ -6, 0.9, -26, -4, -5%, 3.1, -4.1
#62 c1ccc(-c2csc(N3CCN(c4ccccn4)CC3)n2)cc1
→ -5, -2.0, -2, 24, 13%, -2.9, 0.8
#63 O=c1c2ccccc2nc(-c2ccco2)n1-c1nc2ccccc2s1
→ -15, 2.4, 9, 6, -3%, 3.7, -3.4
#64 O=C(Cc1ccccc1)Nc1ccc(NC(=O)Cc2ccccc2)c(Cl)c1
→ -5, 2.2, 4, 0, -5%, 1.0, 2.5

Looked up by structure from the list above (4):
Each structure is followed by: B2AR ag, RanGTP-Imp inh, ALR H2O2 inh, Calb FLC, Vif TR-FRET, LANA-H2A inh, HNF4A DNA FP
#63 O=c1c2ccccc2nc(-c2ccco2)n1-c1nc2ccccc2s1
→ -15, 2.4, 9, 6, -3%, 3.7, -3.4
#62 c1ccc(-c2csc(N3CCN(c4ccccn4)CC3)n2)cc1
→ -5, -2.0, -2, 24, 13%, -2.9, 0.8
#61 Cc1cccc(OCC(=O)NCc2cc(C)nc3ccccc23)c1
→ -6, 0.9, -26, -4, -5%, 3.1, -4.1
#64 O=C(Cc1ccccc1)Nc1ccc(NC(=O)Cc2ccccc2)c(Cl)c1
→ -5, 2.2, 4, 0, -5%, 1.0, 2.5

Compound activity from PubChem.
